HNF4A DNA FP: change in binding of human HNF4 alpha to DNA; HNF4a-FITC DNA binding, fluorescence polarization, 1 h; activity change, % at 10 µM; hit rate 0.3% among 360,000; AID 1224865; in the data active = activity change above about 30%, passing the limit was not always enough;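 note: controls were the assay level and a saturating level of protein; the project sought stronger binding though the title names inhibitors; some compounds called inactive have numbers as strong as hits; positive values seem to mean higher polarization but the record does not say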
UCH37 inh: human UCH37 deubiquitinating enzyme inhibition | hit rate 0.33% among 330,000 | inhibition, % (concentration not given with the values) | purified proteasome/UCH37, Ub-AMC cleavage fluorescence | Q9Y5K5;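 active = mean of two replicates above 20%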;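 note: 0% = compound-free wells with enzyme and 100% = wells lacking proteasome; stock transfer was 100 nL into about 20 µL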
Target sequence (Q9Y5K5 whole entry, looked up): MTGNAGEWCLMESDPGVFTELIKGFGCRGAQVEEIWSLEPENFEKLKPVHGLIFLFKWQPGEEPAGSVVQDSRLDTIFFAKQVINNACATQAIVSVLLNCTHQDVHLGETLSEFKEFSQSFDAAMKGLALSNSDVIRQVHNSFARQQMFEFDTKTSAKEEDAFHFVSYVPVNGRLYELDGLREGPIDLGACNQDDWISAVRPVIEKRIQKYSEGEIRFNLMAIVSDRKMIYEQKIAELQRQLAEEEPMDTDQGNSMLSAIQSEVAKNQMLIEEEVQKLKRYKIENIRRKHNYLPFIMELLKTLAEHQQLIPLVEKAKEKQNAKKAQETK
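Material: human UCH37 enzyme supplied as purified proteasome complex. Measure: % inhibition of Ub-AMC cleavage fluorescence. Medium: pH 7.4 Tris-HCl (50 mM) with ovalbumin, ATP-MgCl2, DTT. Times: 30 min preincubation with enzyme, 25 min cleavage at room temperature. Detection: AMC fluorescence intensity at 355/460 nm.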
Ecoli growth: E. coli growth inhibition; OD600 absorbance (no concentration beside the values); AID 1053175; Escherichia coli growth, OD600, 23 h; active compounds read low; hit rate 0.21% among 330,000;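 active = OD600 absorbance below the run mean of sample wells minus 3.6 SD, in any replicate, cut at about 0.56 in these data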;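 note: stock transfer was 300 nL into about 60 µL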
Vif TR-FRET: HIV-1 Vif–A3G interaction blockers – biochemical, TR-FRET, GST-Vif 1-94, biotin-A3G peptide, dose response retest, primary screen (AID 1117319). TR-FRET GST-Vif / biotin-A3G peptide binding; higher % means a stronger effect; test concentration not given here; strong numbers were not always called active. one-dose inhibition, %; IC50 in µM for titrated hits. hit rate 0.57% among 260,000;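 active = above the screen mean plus three standard deviations and confirmed in dose response; inconclusive = results disagree or hit not tested in dose response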;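 note: Vif residues 1-94 fused to GST binding biotinylated APOBEC3G peptide 110-148; 0% = full assay without inhibitor and 100% = GST in place of GST-Vif; retest series ran down from 100 µM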
RanGTP-Imp inh: inhibitors of RanGTP-importin-beta interaction, primary screen, biochemical, FRET, CFP-Ran, YFP-importin-beta, homogeneous; cell-free CFP-Ran/YFP-importin-beta FRET ratio; inhibition, % (concentration not given with the values); hit rate 1.1% among 300,000;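 active = most replicates above 15%; inconclusive = exactly half above 15%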;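 note: 0% = DMSO wells and 100% = Ran loaded with GDP instead of GTP; wells of about 40 µL received 100 nL stock; the first replicate is given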
FGF22 binding: shifts melting point of recombinant human FGF22 | Q9HCT0 | AID 651658 | recombinant FGF22 thermal shift, SYPRO orange fluorescence; percent of sucrose octasulfate shift, DMSO zero | calls only at 9.99 µM | hit rate 1.5% among 340,000;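 active = melting point raised past a set limit in the mean and every replicate; inconclusive = no clear call; three in four hits are not shown here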
Target sequence (Q9HCT0 whole entry, looked up): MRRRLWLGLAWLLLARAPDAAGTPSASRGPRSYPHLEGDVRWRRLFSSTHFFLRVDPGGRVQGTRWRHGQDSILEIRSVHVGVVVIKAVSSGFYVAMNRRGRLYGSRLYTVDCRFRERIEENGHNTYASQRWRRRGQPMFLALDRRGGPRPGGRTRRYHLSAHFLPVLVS
AF4-AF9 inh: blocks AF4 peptide binding to human AF9; inhibition, % at 10 µM; P42568; AID 651704; AlphaScreen, biotin-AF4 peptide binding to FLAG-AF9; hit rate 0.47% among 350,000;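 active = every replicate reaching a set inhibition limit, whatever the replicate mean, cut at about 25% in these data; inconclusive = mean inhibition reaches that limit but some replicates miss it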;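 note: 0% = plate neutral control median and 100% = total signal loss; the record names both 10 and 1 µM as test concentration; the first replicate is given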
Target sequence (P42568 whole entry, looked up): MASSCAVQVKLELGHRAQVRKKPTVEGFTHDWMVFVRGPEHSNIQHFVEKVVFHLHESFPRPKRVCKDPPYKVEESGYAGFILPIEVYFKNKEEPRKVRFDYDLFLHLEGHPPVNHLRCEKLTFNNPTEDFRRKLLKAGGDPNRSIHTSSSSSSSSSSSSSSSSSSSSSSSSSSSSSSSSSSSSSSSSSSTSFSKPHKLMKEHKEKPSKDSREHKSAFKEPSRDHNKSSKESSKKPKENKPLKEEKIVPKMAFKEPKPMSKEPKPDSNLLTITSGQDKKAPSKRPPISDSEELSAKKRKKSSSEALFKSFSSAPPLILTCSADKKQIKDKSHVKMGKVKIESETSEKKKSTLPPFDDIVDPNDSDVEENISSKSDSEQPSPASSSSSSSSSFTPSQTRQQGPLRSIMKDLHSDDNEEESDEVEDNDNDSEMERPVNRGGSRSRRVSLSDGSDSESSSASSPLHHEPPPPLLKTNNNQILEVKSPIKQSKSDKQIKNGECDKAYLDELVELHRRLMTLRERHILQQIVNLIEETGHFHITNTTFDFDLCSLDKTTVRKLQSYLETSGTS
* marks the source's active call; other numbers are inactive results; i = inactive; ? = inconclusive; / = not tested or not shown.

SMILES	HNF4A DNA FP	UCH37 inh	Ecoli growth	Vif TR-FRET	RanGTP-Imp inh	FGF22 binding	AF4-AF9 inh
O=C(NNC(=S)NC(=O)c1ccccc1[N+](=O)[O-])c1ccccc1O	7.8	9.9	0.445*	5.3%	19.1*	i	1.4
Cc1cc(C)c2c(N)c(C(=O)NNC(=O)c3ccccc3)sc2n1	1.8	-119.5	0.708	/	11.1	/	-2.8
NS(=O)(=O)c1ccc(CNC(=O)/C=C/c2c(Cl)cccc2Cl)cc1	/	1.8	0.744	7.8%	-2.5	/	/
CCN1CCN(c2c(Cl)cccc2NC(=O)c2cccs2)CC1	-2.7	3.3	0.638	/	-2.0	i	2.7
Cc1ccc(C(=O)N/N=C\c2cccn2C)cn1	-0.4	/	/	6.1%	2.0	/	/
CC1CCc2[nH]c3ccc(C(=O)N(C)CC(=O)Nc4ccccc4Cl)cc3c2C1 (centres undefined)	-3.0	-3.4	0.644	-5.5%	/	i	1.3
COc1cccc(-n2nnnc2SCC(=O)Nc2ccc(OC)cc2OC)c1	7.9	2.2	0.695	/	-3.6	i	0.7
Cc1cccc(-n2cc(CN3CCCN(C=O)CC3)c(-c3cccc(F)c3)n2)c1	1.4	0.5	0.713	-3.9%	1.6	i	0.5
Cn1c(=O)n(CC(N)=O)c(=O)c2c1nc1n2CCCN1Cc1ccccc1	-0.9	1.6	0.662	-9.3%	-1.5	i	-2.4
CC(NC(=O)COC(=O)c1ccc(Cl)cc1O)c1ccc(F)cc1 (centres undefined)	4.0	-5.5	0.701	14.5%	6.6	i	-3.2
COCCCNC(=S)NC(=O)c1ccc(C)cc1	-2.0	3.2	0.705	-8.2%	-2.4	i	1.9
CC(NC(=O)c1ccccc1Br)C1CC2CCC1C2 (centres undefined)	-1.0	3.6	0.675	/	-0.2	i	-2.1
COc1ccc(C(=O)Oc2cc(C)c(CN3CCOCC3)cc2C)cc1OC	3.1	3.3	0.633	4.8%	-4.8	i	6.8
COc1cc(C=Nc2c(C)cc(C)cc2C)ccc1OC(C)=O	-0.5	2.8	0.688	/	-3.5	i	-4.4
COc1ccc(NS(=O)(=O)c2cccc(NC(=O)CCC(=O)c3ccc(Cl)cc3)c2)cc1	2.2	0.7	0.684	0.7%	-1.2	i	3.8
COc1ccc(N2C(=O)CN(Cc3cc(OC)c(OC)c(OC)c3)C2=S)cc1	-0.4	4.3	0.722	2.5%	0.8	i	-1.4
O=CNc1cc(-c2ccc(C(=O)NC3CC3)cc2)cn2c(-c3ccc(F)cc3)cnc12	4.2	/	/	/	/	i	2.7
COc1ccc(NC(=O)c2ccc(C#N)cc2)cc1NS(=O)(=O)c1ccc(F)cc1	6.0	-8.5	0.675	8.9%	7.9	/	/
COc1cc([N+](=O)[O-])ccc1NC(=O)Nc1cccnc1	4.3	5.3	0.687	-6.9%	-2.7	i	-0.9
CCc1ccc(OCC(=O)Nc2nnc(-c3ccco3)s2)cc1	5.5	-4.8	0.661	/	8.4	i	-6.9
Cc1cccc(N2C(=O)CCC2=O)n1	-0.5	-1.7	0.685	-7.6%	3.3	/	/
CC1(Cc2cccc(F)c2)C(=O)Nc2ccc(-c3cccnc3)cc21 (centres undefined)	1.6	/	/	/	/	i	1.8
Nc1c(C(=O)NCc2ccc3c(c2)OCO3)nnn1Cc1ccc(Br)cc1	0.1	3.4	0.706	-9.0%	-1.0	i	2.0
COc1ccc(C)cc1NS(=O)(=O)c1cccc2nonc12	-1.5	0.4	0.672	18.5%	-1.5	/	/
O=c1[nH]c2ccccc2n1C1CCN(CCOc2ccccc2)CC1	4.0	/	/	3.5%	/	i	2.5

(list continues)
SMILES	HNF4A DNA FP	UCH37 inh	Ecoli growth	Vif TR-FRET	RanGTP-Imp inh	FGF22 binding	AF4-AF9 inh
O=C(CCc1nc2ccccc2c(=O)[nH]1)NC1CCN(Cc2ccccc2)CC1	2.8	2.1	0.668	6.8%	4.6	/	/
CC1Cc2ccccc2N1C(=O)CSc1nncn1C (centres undefined)	0.0	3.9	0.689	4.4%	0.4	i	0.8
CC(=O)C1=C(O)C(=O)N(c2ccc(O)cc2)C1c1ccccc1Cl (centres undefined)	-1.0	9.9	0.655	-8.5%	5.7	i	-2.2
O=C(O)CC1=C(c2ccc(F)cc2)CCC1=O	4.4	1.9	0.71	9.7%	8.9	i	-0.9
COc1ccccc1N(CC1CO1)S(=O)(=O)c1ccc(C)cc1 (centres undefined)	0.5	1.6	0.7	2.6%	1.1	i	-8.4
CCN(CC)CCOC(=O)c1ccc(NC(=O)CCCN2C(=O)/C(=C/c3cccs3)SC2=S)cc1	23.2	3.8	0.66	/	3.2	i	9.8
Cc1ccc(F)cc1NC(=O)Nc1cc(C(C)(C)C)nn1C	-2.7	2.1	0.631	19.9%	-2.4	i	2.1
COc1cc(OC)cc(-c2c(C#Cc3ccsc3)c3cc(Br)ccc3n2C)c1	6.8	5.5	0.837	/	/	i	-1.5
COc1cc2nc(SCC(N)=O)n(CCC3=CCCCC3)c(=O)c2cc1OC	1.6	2.3	0.72	-3.8%	-2.5	i	-46.8
Cn1c(=O)c2c(n(Cc3ccccc3)c1=O)NC(=O)C2CC(=O)O (centres undefined)	-2.9	1.0	0.743	29.9%	0.9	/	/
O=C(COC(=O)/C=C/c1ccc2c(c1)OCO2)NC1CCS(=O)(=O)C1 (centres undefined)	1.3	-35.1	0.703	17.0%	5.1	i	1.4
CCC1Oc2ccccc2N(CC(=O)NCCN2CCc3ccccc3C2)C1=O (centres undefined)	-0.1	0.6	0.702	7.1%	-4.8	i	-10.4
COC(=O)c1ccccc1NC(=O)C1CC(=O)N(c2ccc(OC)cc2)C1 (centres undefined)	2.5	2.8	0.716	0.3%	1.3	/	-0.3
CCOC(=O)C1CCN(c2ncnc3cc(OC)c(OC)cc23)CC1	3.5	5.5	0.665	76.0%	4.8	i	5.2
CCCC(=O)Nc1cnc(NC(=O)c2cccc(F)c2)cc1C	0.8	0.6	0.68	-5.2%	0.4	/	/
O=C1C2C3C=CC(C3)C2C(=O)N1Cc1cccnc1 (centres undefined)	-1.1	0.7	0.726	-0.7%	-1.3	/	/
COc1ccc(NC(=O)CSc2nc(N)c3cc4c(nc3n2)CCCC4)c(OC)c1	1.5	3.0	0.701	7.3%	-2.4	/	/
O=C(N/N=C/c1cccc(Br)c1)C1CC(=O)N(c2ccccc2)C1 (centres undefined)	2.9	/	/	-5.8%	-6.4	i	0.2
COC(=O)C(C)Sc1nc2c(c(=O)[nH]c(=O)n2C)n1CCCc1ccccc1 (centres undefined)	-0.5	2.1	0.68	?	1.0	/	/
Cc1onc(-c2ccccc2)c1C(=O)Oc1cccnc1	-4.1	2.8	0.713	7.6%	-0.7	/	/
O=C1C2C(c3ccccc3)(C(=O)N1c1ccc(Cl)cc1)C2(c1ccccc1)c1ccccc1 (centres undefined)	0.3	-1.4	0.706	/	-1.7	i	5.4
CCC(C)NC(=O)c1cn(CC)c2ccc(S(=O)(=O)N3CCCCC3)cc2c1=O (centres undefined)	-0.7	6.5	0.648	/	1.4	i	-0.9
O=C(Nc1cccnc1)c1cccc(S(=O)(=O)N2CCc3ccccc32)c1	3.5	2.1	0.688	-4.1%	0.7	i	3.5
O=C(c1cnn(-c2ccccc2)c1)c1ccc2ccccc2c1O	-0.6	3.8	0.729	22.5%	-3.9	/	/
Cc1c(C(=O)N2CCN(c3ncccn3)CC2)oc2ccc(Cl)cc12	-7.6	0.2	0.627	-2.4%	/	i	-6.3

Fetched one by one from the entries so far (three):
SMILES	HNF4A DNA FP	UCH37 inh	Ecoli growth	Vif TR-FRET	RanGTP-Imp inh	FGF22 binding	AF4-AF9 inh
O=C1C2C3C=CC(C3)C2C(=O)N1Cc1cccnc1 (centres undefined)	-1.1	0.7	0.726	-0.7%	-1.3	/	/
COc1ccc(NC(=O)CSc2nc(N)c3cc4c(nc3n2)CCCC4)c(OC)c1	1.5	3.0	0.701	7.3%	-2.4	/	/
CCC1Oc2ccccc2N(CC(=O)NCCN2CCc3ccccc3C2)C1=O (centres undefined)	-0.1	0.6	0.702	7.1%	-4.8	i	-10.4

Going on with the list:
SMILES	HNF4A DNA FP	UCH37 inh	Ecoli growth	Vif TR-FRET	RanGTP-Imp inh	FGF22 binding	AF4-AF9 inh
CC(=O)NC(c1ccc(F)c(F)c1)c1nc(-c2cccc(F)c2)cs1 (centres undefined)	-1.2	/	/	/	/	i	-1.9
CS(=O)(=O)Oc1ccccc1/C=C1/N=C(c2ccc(F)cc2)OC1=O	1.9	-1.3	0.734	4.5%	-4.8	i	-16.3
O=C(O)/C=C\C(=O)Nc1ccc(Oc2ccc(Br)cc2)cc1	1.8	4.1	0.627	-3.9%	-2.2	i	1.4
CCOC(=O)N1CCC(NS(=O)(=O)c2cc3c(cc2Cl)NC(=O)CO3)CC1	1.4	1.1	0.706	-2.4%	-6.3	/	/
CCOC(=O)C(Cc1cc(C(C)=O)ccc1OC(C)C)C(=O)OCC	1.5	2.0	0.728	0.9%	-0.8	/	-9.6
CCn1c2ccccc2c2cc(N)ccc21	35.9	-65.4	0.709	?	-33.4	/	/
Cc1ccc(SC[C@H](Cc2ccccc2)N2CCN(CC(C)C)CCC2=O)cc1	1.7	0.4	/	12.3%	-0.8	i	3.0
O=C(NCCSCc1ccccc1)c1ccc(Cl)c(S(=O)(=O)N2CCOCC2)c1	-1.4	2.8	0.693	-5.0%	-4.4	/	/
CC1(c2nnc(-c3ccc(Cl)cc3)o2)CC(c2cccnc2)=NO1 (centres undefined)	-3.6	0.8	0.675	/	5.4	i	2.8
Cc1ccc(-n2c(SCC(=O)NCCN3C(=O)CSC3=O)nnc2-c2ccccc2)cc1C	0.6	4.8	0.736	/	0.1	/	/
CN1C(=O)C(C)(C)c2cc(S(=O)(=O)N3CCN(c4ccccc4)CC3)ccc21	2.6	1.4	0.673	/	8.0	i	4.4
O=C(COc1ncnc2c(Cl)cc(Cl)cc12)Nc1cc([N+](=O)[O-])ccc1Cl	4.8	2.0	0.622	27.5%	2.3	/	/
CC(OC(=O)Cn1cc(C(F)(F)F)ccc1=O)C(=O)N(C)c1ccccc1 (centres undefined)	3.7	3.6	0.721	9.7%	/	i	4.6
N=C1c2ccccc2CN1c1ccc(S(=O)(=O)N2CCCCC2)cc1	0.1	1.6	0.673	21.9%	-3.5	i	-0.1
CC(=O)N(/N=C1\Sc2ccccc2C1=O)c1ccccc1C	25.0	/	/	-3.0%	23.8*	/	/
Cc1ccc(SC[C@H](C)CN2CC[C@H](NC(=O)OCc3ccccc3)CCC2=O)cc1	-3.7	6.1	0.816	/	2.3	i	3.3
Cc1ccc(C(=O)OCC(=O)NCc2ccccc2)cc1S(=O)(=O)N1CCCCC1	-1.8	-2.9	0.691	-8.2%	/	i	-0.2
COc1cccc(C(=O)/C=C/Nc2ccc(S(=O)(=O)Nc3ccc(C(C)=O)cc3)cc2)c1	-4.8	-14.0	0.701	/	5.2	i	-1.4
COC(=O)c1[nH]nc(C(=O)OC(C)(C)C)c1-c1ccccc1	-1.9	3.0	0.716	-0.3%	5.7	i	-4.4
CC(=O)c1sc(NC(=O)CCS(=O)(=O)c2ccccc2)nc1C	4.0	3.4	0.682	7.0%	-13.2	i	-0.6
COc1ccc2c(CC(=O)NNC(=O)c3ccc(C)cc3)coc2c1	2.2	0.8	0.727	4.4%	/	i	0.9
COc1ccc(CNC(=O)COC(=O)CN2C(=O)C3CC=CCC3C2=O)cc1 (centres undefined)	-1.3	2.9	0.702	8.6%	/	i	0.2
Cc1ccc(-n2c(SCC3CNC(=O)O3)nnc2-c2ccccc2)cc1C (centres undefined)	/	-0.1	0.672	2.0%	-1.3	/	/
O=C(NCCCCc1ccccc1)c1ccc(F)cc1	-4.8	4.1	0.695	/	0.5	/	0.6
COc1ccc(CC(N)c2csc(Nc3cc(Oc4ccccc4)ncn3)n2)cc1 (centres undefined)	3.1	/	/	/	/	i	3.4

A portion of the library; rates above refer to the full screens.
